Screening data from PubChem BioAssay.
Calb FLC: C. albicans growth inhibition with fluconazole, primary screen, CaCi-2 strain, Alamar Blue fluorescence. C. albicans CaCi-2 (fluconazole-resistant clinical isolate) + fluconazole, 48 h. growth inhibition, % (test concentration not listed). hit rate 0.57% among 300,000. AID 1979, 2009;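 active means most replicates above 75%; inconclusive means exactly half above 75%; inactive means most below 75%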;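 further: all wells also contain fluconazole at 8 µg/ml as a sub-toxic cotreatment; 0% = median of DMSO wells and 100% = median of geldanamycin control wells; wells of about 8 µL received 7.5 nL stock; the first replicate is given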
MLL AF4-AF9 inh: inhibitors of AF4 peptide binding to AF9, primary screen, biochemical, AlphaScreen, biotin-AF4 peptide, FLAG-AF9, single point. AID 651704, 2012. inhibition, % at 10 µM. Protein AF-9 (Homo sapiens), P42568. hit rate 0.47% among 350,000;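 active means every replicate reaching a set inhibition limit, whatever the replicate mean, cut at about 25% in these data; inconclusive means mean inhibition reaches that limit but some replicates miss it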;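 further: 0% = plate neutral control median and 100% = total signal loss; the record names both 10 and 1 µM as test concentration; the first replicate is given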
Bfl-1 A1 inh: caspase 3/7 activation in MEF A1-2A-BIM cells, primary screen, A1 inhibitor project, cell-based, luminescence, HTS; Caspase-Glo 3/7 luminescence, 3 h; percent of clofoctol response, vehicle zero; caspase activation, % (no concentration beside the values); hit rate 0.066% among 330,000;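 active means over half of replicate activation scores above 10%, or exactly half above 10 with the replicate mean above 10; inconclusive means replicate mean below 10 yet half the replicates above 10; inactive means over half of replicates below 10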;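 further: wells of about 30 µL received 50 nL stock; many hits fall short of the cut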
LANA-H2A inh: blockers of LANA interaction with H2A/H2B – biochemical, FP readout, HTS, primary screen. Protein LANA1 (Human herpesvirus 8 type P (isolate GK18)), Q9QR71. cell-free LANA-H2A/H2B peptide, fluorescence polarization. inhibition, % (test concentration not listed). hit rate 0.6% among 320,000; in the data active means inhibition mostly above about 10%, no sharp cut-off; inactive means mostly below about 6.7%;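 further: stock transfer was 7.5 nL into about 10 µL; 0% = median of vehicle wells and 100% = median of positive control wells; one replicate is shown; the record names a cut of 25% in any replicate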
Target sequence (Q9QR71 whole entry, looked up): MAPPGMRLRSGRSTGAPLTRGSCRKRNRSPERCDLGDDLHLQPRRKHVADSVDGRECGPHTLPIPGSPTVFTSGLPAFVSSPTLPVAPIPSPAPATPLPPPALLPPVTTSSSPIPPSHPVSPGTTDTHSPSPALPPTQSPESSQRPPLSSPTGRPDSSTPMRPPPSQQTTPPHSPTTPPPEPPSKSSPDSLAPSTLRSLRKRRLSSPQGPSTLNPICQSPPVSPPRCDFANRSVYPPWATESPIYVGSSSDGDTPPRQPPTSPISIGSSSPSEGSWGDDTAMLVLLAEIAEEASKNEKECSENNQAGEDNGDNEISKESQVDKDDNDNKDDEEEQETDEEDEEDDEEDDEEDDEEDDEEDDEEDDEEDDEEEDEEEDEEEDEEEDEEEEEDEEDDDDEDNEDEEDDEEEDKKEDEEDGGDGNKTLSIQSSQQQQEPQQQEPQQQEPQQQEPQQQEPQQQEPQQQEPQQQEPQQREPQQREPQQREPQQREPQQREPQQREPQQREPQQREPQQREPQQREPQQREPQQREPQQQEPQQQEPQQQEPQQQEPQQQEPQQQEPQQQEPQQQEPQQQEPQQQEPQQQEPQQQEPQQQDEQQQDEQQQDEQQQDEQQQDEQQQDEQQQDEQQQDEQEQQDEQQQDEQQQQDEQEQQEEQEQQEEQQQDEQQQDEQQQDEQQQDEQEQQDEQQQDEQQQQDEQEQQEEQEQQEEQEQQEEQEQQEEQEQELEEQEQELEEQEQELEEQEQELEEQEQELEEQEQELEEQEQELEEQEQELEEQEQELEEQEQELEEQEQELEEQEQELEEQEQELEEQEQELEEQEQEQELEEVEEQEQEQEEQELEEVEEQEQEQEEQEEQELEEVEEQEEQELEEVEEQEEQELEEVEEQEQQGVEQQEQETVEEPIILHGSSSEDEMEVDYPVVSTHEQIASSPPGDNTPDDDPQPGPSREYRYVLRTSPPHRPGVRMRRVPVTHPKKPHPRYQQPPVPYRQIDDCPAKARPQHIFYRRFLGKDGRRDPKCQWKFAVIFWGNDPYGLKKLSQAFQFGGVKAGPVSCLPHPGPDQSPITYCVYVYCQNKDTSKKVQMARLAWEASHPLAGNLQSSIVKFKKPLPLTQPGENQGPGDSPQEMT
Vif A3G: inhibitors of Vif binding to APOBEC3G peptide, primary screen, biochemical, TR-FRET, GST-Vif 1-94, biotin-A3G peptide, dose response retest (AID 1117319); Virion infectivity factor (Human immunodeficiency virus type 1 group M subtype B (isolate …; TR-FRET GST-Vif / biotin-A3G peptide binding; higher % means a stronger effect; test concentration not given here; strong numbers were not always called active; one-dose inhibition, %; IC50 in µM for titrated hits; hit rate 0.57% among 260,000;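 active means above the screen mean plus three standard deviations and confirmed in dose response; inconclusive means results disagree or hit not tested in dose response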;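 further: Vif residues 1-94 fused to GST binding biotinylated APOBEC3G peptide 110-148; 0% = full assay without inhibitor and 100% = GST in place of GST-Vif; retest series ran down from 100 µM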
RanGTP-Impb inh: inhibitors of RanGTP-importin-beta interaction, primary screen, biochemical, FRET, CFP-Ran, YFP-importin-beta, homogeneous; Ran GTPase (GTP-bound) - importin-beta complex; hit rate 1.1% among 300,000; cell-free CFP-Ran/YFP-importin-beta FRET ratio; inhibition, % (concentration not given with the values);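 active means most replicates above 15%; inconclusive means exactly half above 15%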;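 further: 0% = DMSO wells and 100% = Ran loaded with GDP instead of GTP; wells of about 40 µL received 100 nL stock; the first replicate is given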
Beta apoptosis: inhibitors of cytokine-induced beta cell apoptosis, primary screen, luminescence; INS-1E cytokine-induced death, ATP luminescence, 48 h; percent of positive-control rescue, neutral wells zero; protection from apoptosis, % (no concentration beside the values); hit rate 0.8% among 300,000;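 active means all replicates at 75% or more, or half of them and the mean; inconclusive means half reach 75% but not the mean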;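 further: 0% = cytokine-treated negative control wells and 100% = positive control rescue; higher means more ATP so stronger rescue from cytokine killing; wells of about 40 µL received 100 nL stock; the first replicate is given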
T cruzi repl: inhibitors of intracellular T. cruzi growth, primary screen, luminescence, NIH3T3 host cells; inhibition, % (no concentration beside the values); T. cruzi beta-gal in NIH3T3, 90 h; hit rate 1.4% among 300,000;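 active means mean inhibition across valid replicates above about 55%, limit read from the data; inconclusive means mean below that limit but half or more replicates reach it; inactive means mean below it, under half of replicates reach it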;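 further: signal also drops with host cell toxicity which is not excluded here; 0% = plate median of DMSO wells and 100% = zero luminescence signal; higher percent means less beta-gal luminescence so fewer parasites; stock transfer was 50 nL into about 50 µL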
* hit, by the source's call; u = inconclusive; x = not tested or not shown; + = active, no number. Not a hit list; any-hit rate near 4.3%.

The line under a structure holds: Calb FLC	MLL AF4-AF9 inh	Bfl-1 A1 inh	LANA-H2A inh	Vif A3G	RanGTP-Impb inh	Beta apoptosis	T cruzi repl
(1) CC1C(=O)N2CCCc3cc(NC(=O)C(=O)NCCc4c[nH]c5ccccc45)cc1c32 (stereo not drawn)
  0	12	-0.4	3.1	-4%	-2.8	0	20
(2) Cc1ccc(C)c(NC(=O)CSc2ccc(-c3cccs3)nn2)c1
  -2	x	0.5	-3.2	x	-2.6	0	3
(3) Cc1ccc(CSc2ncnc3c2cnn3-c2ccccc2)cc1
  40	x	3.1	0.6	x	9.7	-3	-37
(4) COc1ccccc1NC(=O)CSc1nnc(Cn2cnc3ccccc32)n1C
  -8	x	0.9	0.1	19%	-1.4	6	3
(5) COc1ccc(OC)c(C2C(C(N)=O)=C(C)Nc3nc(CCCO)nn32)c1 (stereo not drawn)
  4	-5.7	-0.3	1.0	0%	-3.3	-7	-6
(6) C[C@]12c3[nH]c4ccccc4c3CCN1C(=O)C(CC(=O)NCc1cccc(C(F)(F)F)c1)C[C@@H]2C(=O)N1CCOCC1 (stereo partly drawn)
  x	3.2	1.0	+	-4%	x	-2	x
(7) Cn1c(COc2cccc3ccccc23)nnc1SCC(=O)OC1CCCCC1
  -7	-1.9	0.0	-0.4	1%	1.9	-2	-11
(8) O=C(CN1CCC(n2nnc3cc(F)ccc32)CC1)N1CCc2ccccc2C1
  37	6.3	-0.7	1.1	4%	-3.4	10	5
(9) Cc1ccc(Cl)cc1N1CCN(c2cccc[n+]2C)CC1
  -12	x	-0.6	-3.2	x	1.2	7	25
(10) CCOc1ccc(NC(=O)CN2CCN(Cc3c(F)cccc3F)CC2)cc1
  -4	1.2	-0.5	-5.3	0%	1.9	x	7
(11) CN(CC(=O)Nc1ccccc1Cl)C(=O)COC(=O)c1ccc(Cl)cc1[N+](=O)[O-]
  0	3.4	-1.5	-1.8	x	1.3	-10	-7
(12) O=S(=O)(NC(=NC1CCCC1)C(F)(F)F)c1ccccc1
  -2	x	-0.5	-1.1	10%	3.0	0	-14
(13) CCOP(=O)(OCC)C(Nc1cccc(C(F)(F)F)c1)c1ccc(Br)cc1 (stereo not drawn)
  8	-88	x	x	x	3.1	x	24
(14) CC(NC1CCCC1)c1ccccc1 (stereo not drawn)
  -9	-1.7	-0.6	0.0	-4%	u	-5	-7
(15) O=C(COc1cc(F)ccc1[N+](=O)[O-])NCCCc1ccccc1
  -2	2.8	-0.1	-4.0	-8%	-4.0	-4	7
(16) O=C(N/N=C/c1ccc(O)cc1O)/C(=C/c1ccccc1)CCO
  -7	x	-0.6	2.9	u	2.5	85*	6
(17) O=C(CCN1C(=O)/C(=C/c2ccc3c(c2)OCO3)SC1=S)Nc1cccc(C(=O)O)c1
  8	-1.9	-1.4	-5.4	-2%	3.2	x	-7
(18) O=C(Nc1cccc([N+](=O)[O-])c1)NC1CCS(=O)(=O)C1 (stereo not drawn)
  1	-0.2	0.6	5.5	2%	0.3	-4	-18
(19) CCN1CCC(NCCc2ccc(F)cc2)CC1
  -3	3.4	-0.1	-2.6	x	-1.0	16	12
(20) O=C1OCc2cccc3cccc1c23
  35	x	0.8	4.5	0%	0.3	1	-5
(21) CN(C)c1ccc(/C=C(\NC(=O)c2ccccc2)C(=O)NCc2ccncc2)cc1
  0	-0.6	0.9	-2.0	12%	23*	-2	-11
(22) CCOc1cc(C)c(S(=O)(=O)N2CCCC2)cc1C
  -1	x	-0.2	1.9	12%	0.9	0	3
(23) Cc1nn2cnnc2c(C)c1Cc1c(F)cccc1Cl
  -2	-2.8	-1.5	-2.7	-3%	u	-2	4
(24) O=C(NCc1ccncc1)C(=O)C1C(=O)Nc2ccccc21 (stereo not drawn)
  -9	2.3	0.7	1.0	10%	3.0	-9	-11
(25) CC1Cc2nc(SCC(=O)Nc3nc4ccccc4s3)n(C)c(=O)c2S1 (stereo not drawn)
  3	1.6	0.6	-0.2	1%	2.1	-1	-7
(26) CC(=O)CCn1cc([N+](=O)[O-])nc1C
  1	-1.6	1.0	-6.7	33%	6.6	1	-1
(27) O=C(Nc1cccc(Br)c1)c1ccc(CN2CCc3ccccc3C2)cc1
  9	0.4	-3.8	-2.9	x	0.3	-3	3
(28) O=C(NCCn1cccn1)C1CCC(=O)N(CC2CCCCC2)C1 (stereo not drawn)
  2	-1.6	0.2	2.2	1%	u	-1	-16
(29) CCOC(=O)N1CCC(Nc2c(-c3ccc(C)c(C)c3)c(=O)c2=O)CC1
  14	x	0.4	0.3	-11%	-1.8	x	-4
(30) CCC(C)NC(=O)CN1C(=O)NC2(CCc3ccccc3C2)C1=O (stereo not drawn)
  -8	0.3	0.4	-1.2	-8%	-0.5	4	1
(31) Cc1ccnc(SCC(=O)N2CCc3ccccc32)n1
  -6	-8.6	-1.7	10.0	x	-1.4	9	-5
(32) O=c1[nH]snc1-c1c(Cl)cccc1Cl
  3	11	-0.5	-0.8	x	2.5	0	-4
(33) COc1ccc(S(=O)(=O)N2CCCCC2)cc1NC(=O)Cn1cnc2c1c(=O)n(C)c(=O)n2C
  x	0.4	0.3	-1.0	-8%	x	-10	x
(34) CCN1CCCc2cc(CN(CCN3CCOCC3)C(=S)Nc3cccc(C)c3)ccc21
  0	37*	-0.4	-9.6	-5%	2.4	-3	61*
(35) CCc1ccc(NC(=O)CSc2nnnn2-c2cccnc2)cc1
  25	-5.2	1.4	6.6	x	u	1	-18
(36) CCCCC(=O)N(Cc1nc2sc(C)c(C)c2c(=O)[nH]1)C1CCCC1
  25	-1.8	-0.4	4.7	-3%	3.5	-2	-2
(37) N#Cc1nc(-c2ccco2)oc1NCc1ccc(F)cc1
  -2	x	0.5	-1.4	2%	11	-5	-21
(38) COC(=O)/C=C/c1ccccc1CN1[C@@H](CC(=O)OC)c2ccccc2S1(=O)=O
  x	-3.0	-2.2	9.7	x	x	-6	x
(39) COCCn1c(SC(C)C(=O)Nc2ncc(Cl)cc2Cl)nc2ccccc21 (stereo not drawn)
  0	x	-0.1	-4.9	u	-3.5	-1	3
(40) COc1ccc(-n2c(SC(C)C(=O)Nc3ccc(NC(C)=O)cc3)nc3ccccc3c2=O)cc1OC (stereo not drawn)
  15	2.9	-1.1	-0.1	x	-3.3	4	5
(41) CC(C)Oc1ccc(C(=O)NC(C)(C)CO)cc1
  -2	x	0.5	2.6	24%	5.3	-2	-19
(42) CCOC(=O)c1nn(-c2ccc([N+](=O)[O-])cc2)cc1O
  1	-5.3	0.6	1.4	-9%	0.7	-5	6
(43) CCn1c(=O)c2ccccc2n2c(SCC(=O)NCc3cccs3)nnc12
  6	x	-0.7	-0.4	1%	0.0	-5	-1
(44) O=C(NC1CCN(S(=O)(=O)c2cccc(F)c2)CC1)c1ccc(F)cc1
  -8	-6.1	0.6	0.4	x	2.0	-7	-6
(45) CC(=O)Nc1sc(N/N=C/c2ccc(C)cc2)nc1-c1ccc(C)cc1
  2	0.6	0.3	4.1	12%	-1.7	-4	-17
(46) COc1ccc(N2C(=O)Cc3ccccc3C2=O)cc1
  -2	-26	0.4	-1.9	2%	-0.4	-1	-17
(47) O=C(NCc1nnc(SCC(=O)N2CCOCC2)o1)c1c(F)cccc1Cl
  -16	0.3	-0.5	-3.8	0%	4.0	-15	-1
(48) CCN1CCn2c3c(c4cc(Br)ccc42)CCCC31 (stereo not drawn)
  -4	x	-0.3	-12	-50%	0.8	-3	8
(49) CCCN1CCN(CCCNC(=O)Cn2cc3c(n2)CCCC3)CC1
  -1	-6.8	0.0	4.2	19%	4.7	-2	10
(50) CCOc1ccc(N=C(NC#N)SCC(=O)NC2CC2)cc1
  0	x	-0.5	-1.3	-1%	-0.8	-3	4

The listing continues.
The line under a structure holds: Calb FLC	MLL AF4-AF9 inh	Bfl-1 A1 inh	LANA-H2A inh	Vif A3G	RanGTP-Impb inh	Beta apoptosis	T cruzi repl
(51) O=c1c2ccccc2[nH]c(=S)n1CCN1CCc2ccccc2C1
  -1	3.3	-0.1	2.7	3%	-4.3	3	-7
(52) CCn1c(=O)cc(OCC(=O)NCc2cccs2)c2ccccc21
  u	-10	-0.7	-0.9	29%	-0.7	-3	9
(53) Nc1nc(Nc2cccc(Cl)c2)nc(NCCO)c1[N+](=O)[O-]
  -16	0.5	-0.5	2.0	-3%	0.2	18	9
(54) CCOc1c(C)cnc2c1c(=O)n(CC(=O)NCC1CCCO1)c(=O)n2C (stereo not drawn)
  -6	1.0	2.7	-2.5	-2%	0.5	x	-6
(55) CC(=O)c1cccc(N=Nc2c(C)[nH]c3ccccc23)c1
  9	x	-0.3	-1.5	4%	2.2	-1	14
(56) CCCOc1ccccc1C(=O)Nc1ccc(S(=O)(=O)N2CCN(C)CC2)cc1
  -10	3.6	-0.1	4.6	x	-4.3	3	4
(57) N#Cc1cc2c(nc1SCC(=O)N1CCCCC1)CCCCC2
  1	x	-0.5	0.4	-10%	4.5	4	14
(58) CCCCC(=O)NC(=S)Nc1ccccc1N1CCCCC1
  37	x	1.2	-13	2%	-0.7	1	-15
(59) COc1ccc(NC(=O)c2ccc(S(=O)(=O)N(C)c3ccccc3)cc2)cn1
  -3	0.0	0.6	-2.2	2%	9.3	0	19
(60) O=C1OC(COc2ccc(Br)cc2)CN1c1ccccc1 (stereo not drawn)
  1	-8.0	0.4	-3.2	6%	-2.8	-16	3
(61) O=[N+]([O-])c1ccc(Oc2ccc(Oc3ccc(C(F)(F)F)cn3)cc2)nc1
  12	0.5	-0.3	-2.2	-5%	0.9	2	7
(62) CC(C)C(c1nnnn1C1CCCC1)N1CCc2ccccc21 (stereo not drawn)
  -1	x	x	3.5	3%	x	2	9
(63) COC(=O)c1sc(NC(=S)NC(=O)c2ccc(F)cc2)nc1C
  39	-2.3	1.0	1.5	1%	-0.7	2	-13
(64) Cc1[nH]c2ccccc2c1[C@H]1[C@@H](CC#N)C1(C)C
  11	x	-0.4	-0.4	7%	-1.9	-2	-9
